LASV entry inh = Lassa virus entry inhibition. Lassa virus pseudotype entry inhibition, cell reporter; control for the full effect not named in the record. Potency, µM (series often up to 37.9 µM), for inactives: at the highest dose activity change, negative = inhibition, usual class: inhibitors. 300,000 compounds, 1.2% hits. AID 540256; active means well fitted inhibition curve with a large enough effect; inconclusive means small, poorly fitted or top-dose-only effect, or effect the other way; inactive means flat fitted curve, though single readings scatter; tested in HEK293 cells; also: % is scaled to controls: 0 for no effect and ±100 for the full control effect; nearly all actives have a fitted effect of over 50% in size; luciferase read-out
MARV entry inh = Marburg virus entry inhibition; Marburg virus pseudotyped entry inhibition, cell reporter; control for the full effect not named in the record; about a third of the inactives were read at about 46 µM; AID 540276; Potency, µM (titrated, usually from 37.8 µM), for inactives: at the top dose activity change, negative = inhibition, actives largely listed as inhibitors; 300,000 compounds, 1.8% hits; active = well fitted inhibition curve with a large enough effect; inconclusive = small, poorly fitted or top-dose-only effect, or effect the other way; inactive = flat fitted curve, though single readings scatter; tested in HEK293 cells; about a fifth of its hits are not listed in these tables; also: % is scaled to controls: 0 for no effect and ±100 for the full control effect; luciferase read-out
SARS PLpro yeast = blocks SARS-CoV papain-like protease in a yeast assay; Potency, µM (series often up to 32.9 µM), without a hit: at the highest dose activity, positive = growth rescue; S. cerevisiae expressing SARS-CoV PLpro, growth rescue; control for the full effect not named in the record; 330,000 compounds, 0.19% hits; AID 485353; active means well fitted rising curve with a large enough effect; inconclusive means small, poorly fitted or top-dose-only effect; inactive means no such curve, though single readings can be large or run the other way; also: 0% is about no effect; nearly all actives have a fitted effect of over 55% in size; growth read by luminescence after 48 h
Cruzain noTriton = cruzain (T. cruzi) inhibition without detergent | P25779 | purified cruzain, Z-FR-AMC fluorescence, no detergent | Potency, µM, for inactives: max response, negative = inhibition, actives largely listed as inhibitors | 200,000 compounds, 2.3% hits | AID 1476;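 also: plate controls were enzyme without inhibitor for no effect and buffer without enzyme for full effect; nearly all actives have a fitted effect of over 40% in size; top concentration of the series not given in the record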
Target sequence (P25779 123-467 limits assumed): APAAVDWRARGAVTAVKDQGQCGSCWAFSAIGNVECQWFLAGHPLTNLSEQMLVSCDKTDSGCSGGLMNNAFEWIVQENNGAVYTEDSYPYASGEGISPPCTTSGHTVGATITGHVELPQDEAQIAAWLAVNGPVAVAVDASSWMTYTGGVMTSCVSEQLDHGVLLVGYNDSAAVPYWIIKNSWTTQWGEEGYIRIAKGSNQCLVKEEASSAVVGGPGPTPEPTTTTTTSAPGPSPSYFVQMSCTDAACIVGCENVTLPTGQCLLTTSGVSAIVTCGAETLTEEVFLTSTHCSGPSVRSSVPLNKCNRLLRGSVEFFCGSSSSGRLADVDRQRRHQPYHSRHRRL
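Purified cruzain at 1.5 nM, pre-incubated 15 min with compound at room temperature in 100 mM sodium acetate pH 5.5, 5 mM DTT, 0.00005% Triton X-100. Reaction started with 2 uM Z-FR-AMC; AMC fluorescence increase over 60 s gives rate.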
Cruzain Triton = inhibitors of Trypanosoma cruzi cruzain with detergent; P25779; purified cruzain, Z-FR-AMC fluorescence, 0.01% Triton; Potency, µM, inactives show max response, negative = inhibition, actives largely listed as inhibitors; 200,000 compounds, 0.43% hits; AID 1478;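 also: plate controls were neutral wells for no effect and buffer without enzyme for full effect; nearly all actives have a fitted effect of over 40% in size; top concentration of the series not given in the record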
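Sodium acetate buffer (100 mM, pH 5.5) containing 5 mM DTT and 0.01% Triton X-100 hosted 1.5 nM cruzain and test compound for 15 min at room temperature. Cleavage of 2 uM Z-FR-AMC was then tracked by fluorescence.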
RE007 growth inh = less growth of the S. pombe RE007 Vpr strain; S. pombe RE007 Vpr strain, BacTiter-Glo ATP luminescence, 24 h; control for the full effect not named in the record; Potency, µM (titrated, usually from 92.2 µM), without a hit: at the top dose activity change, negative = less growth; 360,000 compounds, 0.21% hits; AID 651644; active = well fitted falling curve with a large enough effect; inconclusive = small, poorly fitted or top-dose-only effect; inactive = no such curve, though single readings can be large or run the other way;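 also: % is scaled to controls: 0 for no effect and ±100 for the full control effect; nearly all actives have a fitted effect of over 50% in size; the assay follows cell death caused by Vpr and the record does not say whether a fall means rescue or toxicity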
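Fission yeast RE007 carrying one integrated HIV-1 vpr copy, seeded at OD 0.01 in PMG+AL medium with 23 nL pinned compound. Grown 24 h at 30 degrees; viability read by BacTiter-Glo luminescence after 5 min.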
NS1 inh = blocks influenza NS1 protein function | 270,000 compounds, 0.4% hits | Potency, µM (series often up to 46.1 µM), without a hit: at the highest dose activity, positive = more growth | S. cerevisiae slowed by influenza A NS1, growth recovery by OD600; active means well fitted rising curve with a large enough effect; inconclusive means small, poorly fitted or top-dose-only effect; inactive means no such curve, though single readings can be large or run the other way; also: nearly all actives have a fitted effect of over 50% in size
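Recovery from NS1-induced slow growth read by OD600 in budding yeast switched to galactose assay medium (pH 6.0, -URA) at 1:100 dilution. Compound 23 nl per well; the matching strain lacking NS1 serves as control.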
StopGo reporter = FMDV 2A StopGo reporter, luciferase signal | human cells with a luciferase reporter of 2A StopGo recoding; control for the full effect not named in the record | Potency, µM (highest dose often 57.9 µM), without a hit: at the highest dose signal change, negative = less light | 410,000 compounds, 1.2% hits | AID 1159524; active = well fitted falling curve with a large enough effect; inconclusive = small, poorly fitted or top-dose-only effect; inactive = no such curve, though single readings can be large or run the other way; tested in HEK293T cells; also: % is scaled to controls: 0 for no effect and ±100 for the full control effect; nearly all actives have a fitted effect of over 45% in size; luciferase light after 4 h
Starred values were filed as active, the others as inactive; ? = inconclusive; · = not tested or not shown; & = joins results of further samples; [ ] = another dose, or the depositor's remark. Unless noted, calls follow the shape of the dose curve; as a rule, active = well fitted curve in the direction sought with a large enough effect; inconclusive = small, poorly fitted or top-dose-only effect, or another doubt; inactive = no such curve, though single readings can be large; an effect the other way counts as inactive or inconclusive. Potency is read from the fitted curve at half-maximal effect.

nr | Structure | LASV entry inh | MARV entry inh | SARS PLpro yeast | Cruzain noTriton | Cruzain Triton | RE007 growth inh | NS1 inh | StopGo reporter
1 | O=C(Nc1nc(-c2ccccn2)cs1)C1COc2ccccc2O1 (configuration not stated) | · | · | ? | -21% | 0.7% | ? | -125% | -18%
2 | Cc1ncc([N+](=O)[O-])n1CCOC(=O)c1ccccc1 | 0% | 10%&10% | 10% | -6% | -4.7% | 8% | 3% | -17%
3 | CC(=O)Nc1nonc1-c1nnc(SCC(=O)Nc2ccc(C)cc2)n1-c1ccccc1 | ? | -13%[46.1 µM] | · | ? | -1.7% | · | · | -12%
4 | COc1ccc(-c2noc(CCC(=O)N3CCC(C)CC3)n2)cc1 | -3% | ? | -6% | 2% | 1.6% | -5% | -13% | 8%
5 | O=C(CSc1nc2ccccc2c(=O)n1CCCN1CCOCC1)Nc1cccc(S(=O)(=O)N2CCCCCC2)c1 | ? | ? | 10% | 5% | -3.0% | 2% | -2% | -8%
6 | CCNC(=O)CC1C(=O)N(c2ccc(F)cc2)C(=O)N1CCc1sccc1C (configuration not stated) | -3%[46.1 µM] | 0%[46.1 µM] | 2% | · | · | -24% | · | -5%
7 | Clc1ccc2oc(-c3ccccn3)nc2c1 | -13% | -24% | -5% | 6% | -6.6% | -21% | -5% | 18%
8 | O=C(NC(=S)N1CCN(C2CCCCC2)CC1)c1ccccc1 | · | 20%[46.1 µM] | 0% | · | · | 8% | · | -15%
9 | CN1CCN(C(=O)c2cc(COc3ccc(F)cc3Cl)on2)CC1c1ccccc1 (configuration not stated) | ? | ? | -1% | · | · | -2% | -11% | ?
10 | COc1ccc(C2=NN(CC(=O)NCCc3ccc(OC)c(OC)c3)C(=O)CC2)cc1 | 17%[46.1 µM] | · | · | -6% | -0.7% | · | · | -16%
11 | Cc1ccc(C)c(-n2cc(CNC(C)Cn3cncn3)c(-c3ccccc3)n2)c1 (configuration not stated) | 9% | -9%[46.1 µM] | 1% | · | · | -12% | 1% | 42%[activator]
12 | COC(=O)CN1C(=O)N/C(=C/c2cc(Cl)c(OC)c(OC)c2)C1=O | -4% | 6% | -6% | · | · | -4% | · | -8%
13 | O=C(O)c1ccccc1C(=O)N1CCN(S(=O)(=O)c2cccc(C(F)(F)F)c2)CC1 | 15%[46.1 µM] | -4%[46.1 µM] | 28% | · | · | 8% | · | 5%
14 | O=C1/C(=C/c2cccnc2)CCC/C1=C\c1cccnc1 | 7.1µM* | ? | -126% | -11% | -5.9% | ? | -38% | ?
15 | COc1cccc(O)c1CN1CCC(n2nccc2NC(=O)c2ccc3c(c2)OCO3)CC1 | 0% | ? | ? | · | · | 1% | 4% | -25%
16 | Cc1cc(C)nc(SCC(=O)N(C)C)n1 | 1% | 13%[46.1 µM] | 2% | · | · | -12% | · | -7%
17 | Cc1nc(-c2ccc(C)c(N3CCN(C(=O)Nc4cccc(Cl)c4C)CC3)c2)no1 | -11%[46.1 µM] | · | · | 9% | -2.5% | · | · | ?
18 | CCOC(=O)c1cnc2nc(COc3ccccc3)[nH]n2c1=O | 0% | 14% | -1% | 5% | 4.7% | 17% | 4% | 6%
19 | COc1cc(NS(=O)(=O)c2ccc(NC(=S)NC(=O)c3cccs3)cc2)nc(OC)n1 | 13% | 6% | 1% | -3% | -11% | ? | ? | 51%[activator]
20 | Cc1ccc(C(=O)c2sc(Nc3ccccc3)c(C#N)c2N)cc1 | ? | ? | 10% | 8% | -5.2% | -5% | 8% | -20%
21 | COc1ccc(N2CCN(Cc3nc4scc(-c5ccccc5)c4c(=O)[nH]3)CC2)cc1 | -2% | -3% | 5% | -19% | -3.2% | -1% | ? | -23%
22 | COc1cccc(N(C(C)=O)C2=NCCCS2)c1 | · | · | 5% | · | · | -10% | 11% | -12%
23 | O=C(c1ccc(F)cc1Cl)N1CCC2(CC1)OCCO2 | 13% | 2% | 3% | · | · | 7% | 10% | -10%
24 | CNS(=O)(=O)c1cn(CC(=O)NCc2ccccc2OC)cc1S(=O)(=O)NC | 17%[46.1 µM] | -20%[46.1 µM] | 1% | · | · | 6% | 1% | 22%

Among those listed so far, three have an aryl thioether with sulfur outside any ring.
nr | Structure | LASV entry inh | MARV entry inh | SARS PLpro yeast | Cruzain noTriton | Cruzain Triton | RE007 growth inh | NS1 inh | StopGo reporter
3 | CC(=O)Nc1nonc1-c1nnc(SCC(=O)Nc2ccc(C)cc2)n1-c1ccccc1 | ? | -13%[46.1 µM] | · | ? | -1.7% | · | · | -12%
5 | O=C(CSc1nc2ccccc2c(=O)n1CCCN1CCOCC1)Nc1cccc(S(=O)(=O)N2CCCCCC2)c1 | ? | ? | 10% | 5% | -3.0% | 2% | -2% | -8%
16 | Cc1cc(C)nc(SCC(=O)N(C)C)n1 | 1% | 13%[46.1 µM] | 2% | · | · | -12% | · | -7%

New compounds follow.
nr | Structure | LASV entry inh | MARV entry inh | SARS PLpro yeast | Cruzain noTriton | Cruzain Triton | RE007 growth inh | NS1 inh | StopGo reporter
25 | COc1ccc(C2CCCN2C(=O)Nc2ccccc2)cc1OC (configuration not stated) | · | · | 6% | -6% | 0.8% | -8% | -13% | -5%
26 | O=S1(=O)CCO[C@H]2Cc3ccccc3[C@H]2N1Cc1ccccc1Br | · | · | -19% | · | · | -2% | 0% | 3%
27 | O=C(/C=C/c1ccc(Cl)cc1)NC(=S)Nc1ccc(C(=O)O)cc1 | 12%[46.1 µM] | -7%[46.1 µM] | 2% | · | · | 1% | 1% | ?
28 | COc1ccc(-c2c[n+]3c(n2-c2ccccc2)SCC3)cc1OC | -15% | 3%[46.1 µM] | 0% | · | · | -3% | · | -8%
29 | Cc1cc(C)c2nc(-c3ccccn3)cc(C(=O)NCc3ccco3)c2c1 | -13% | ? | · | 15% | -16% | -17% | -2% | -27%
30 | O=C(Nc1ccccc1N1CCCCC1)c1ccco1 | -2% | -7% | -1% | -1% | 2.1% | 20% | -27% | ?
31 | COc1ccc(OC)c(C2C3=C(CCCC3=O)NC3=C2C(=O)CCC3)c1 | ? | ? | 12% | -6% | 1.2% | 11% | 6% | 25%
32 | COC(=O)C1=C(C)NC(=O)NC1c1ccccc1 (configuration not stated) | 0% | 16% | -9% | -4% | -3.5% | 10% | -7% | 5%

Pulled by structure from above:
nr | Structure | LASV entry inh | MARV entry inh | SARS PLpro yeast | Cruzain noTriton | Cruzain Triton | RE007 growth inh | NS1 inh | StopGo reporter
29 | Cc1cc(C)c2nc(-c3ccccn3)cc(C(=O)NCc3ccco3)c2c1 | -13% | ? | · | 15% | -16% | -17% | -2% | -27%
30 | O=C(Nc1ccccc1N1CCCCC1)c1ccco1 | -2% | -7% | -1% | -1% | 2.1% | 20% | -27% | ?

Next compounds.
nr | Structure | LASV entry inh | MARV entry inh | SARS PLpro yeast | Cruzain noTriton | Cruzain Triton | RE007 growth inh | NS1 inh | StopGo reporter
33 | CCOc1ccc(N(CC(=O)N2CCCCCC2)S(C)(=O)=O)cc1 | · | · | -6% | · | · | -2% | -5% | 24%
34 | CCOC(=O)c1c(C)oc2ncnc(Nc3ccc(OC)c(OC)c3)c12 | 14%[46.1 µM] | · | · | -7% | 0.6% | · | · | -15%
35 | COc1ccc(NC(=O)C(NC(C)=O)C(=O)Nc2ccc(F)cc2)cc1 (configuration not stated) | · | · | -1% | · | · | 1% | 8% | -6%
36 | O=C(COc1ccc([N+](=O)[O-])cc1)Nc1ccc2c(c1)OCO2 | 6% | 9%[46.1 µM] | 1% | · | · | -13% | · | 13%
37 | Cc1ccc(OCC(=O)N2CCCCCC2)c(C)c1 | 7% | ? | 0% | -6% | 6.0% | -4% | 5% | 48%[activator]
38 | CC(CN1CCN(C)CC1)OC(=O)c1cccc(F)c1 (configuration not stated) | -6% | 4% | 7% | · | · | -13% | 9% | 8%
39 | Cc1ccc(C(=O)NNC(=O)CCCN2C(=O)/C(=C/c3ccccc3Cl)SC2=S)cc1 | ? | 11µM* | 1% | ? | -3.6% | -16% | -1% | ?
40 | CCN1CCN(c2ncnc3sc(C)c(-c4ccccc4)c23)CC1 | 3% | 9%[46.1 µM] | 0% | · | · | 17% | -15% | -4%
41 | O=c1c2ccccc2nc2n1CCN2 | 12% | 8% | 2% | -10% | -2.6% | 5% | 2% | ·
42 | O=C(NCCN1CCCC1)c1ccc2c(=O)n(CCc3ccccc3)c(=O)[nH]c2c1 | 19% | -7%&-7% | -7% | -25% | -6.8% | -7% | 0% | 33%[activator]
43 | CCc1cccc(NC(=O)c2cc3c(=O)oc4ccc(C)cc4c3s2)c1 | -1%[46.1 µM] | -2%[46.1 µM] | · | -2% | -0.4% | · | · | 7%
44 | Cc1ccc(NC(=O)c2sc3ncnc(N4CCN(c5ccccn5)CC4)c3c2C)c(C)c1 | · | · | -41% | · | · | ? | -20% | -13%
45 | CSCCC(NC(=O)COc1ccccc1)C(=O)OCC(=O)c1ccccc1 (configuration not stated) | 14% | 29%[46.1 µM] | · | · | · | ? | · | -3%
46 | COc1cccc(S(=O)(=O)N2CCN(c3ccccc3F)CC2)c1 | -20% | -16% | -7% | 4% | -2.4% | 6% | -36% | -13%
47 | O=C(Nc1ccccc1)C1=C[C@@H](c2ccc(Br)cc2)C[C@@H](OCc2ccc(CO)cc2)O1 | · | · | -3% | · | · | 9% | 8% | -15%
48 | C=CCc1ccc(OCC(O)CN2CCN(Cc3ccc(Cl)cc3)CC2)c(OC)c1 (configuration not stated) | ? | 8.2µM* | -35% | 1% | -0.9% | 22% | -15% | -30%

Compound activity as filed in PubChem.
